CBX7 inh = inhibitors of human CBX7 binding to H3K27me3 peptide; AlphaScreen His6-CBX7 / biotin-H3K27me3 peptide binding; hits give low values; normalised signal (fraction of DMSO) (concentration not given with the values); 66,000 compounds, 1.1% hits; AID 1224903; in the data active means normalised signal below about 0.5;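 further: 100 nL library stock added to about 20 µL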
Target sequence (O95931 whole entry, looked up): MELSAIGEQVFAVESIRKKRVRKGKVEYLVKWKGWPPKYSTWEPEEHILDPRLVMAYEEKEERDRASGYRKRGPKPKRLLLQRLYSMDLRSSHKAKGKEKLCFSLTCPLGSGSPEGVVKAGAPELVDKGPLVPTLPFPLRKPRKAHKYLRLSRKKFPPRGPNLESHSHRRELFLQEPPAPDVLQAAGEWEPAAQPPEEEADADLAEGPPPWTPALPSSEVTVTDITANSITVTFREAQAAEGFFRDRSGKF
CBX7 inh z-score = further read-out of CBX7 inh, marked with its call; z-score; measured here: z-score of CBX7 signal; some inactives read as strong as hits; reference of the scale not given here;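 same signal on another scale; lower means less binding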
Active calls of the source: *. Some of the compounds tested; rates above refer to the full screens.

SMILES	CBX7 inh	CBX7 inh z-score
COc1ccc(OC)c(-c2nc(Nc3ccc(C)c(Cl)c3)sc2CC(=O)O)c1	0.997	-0.0485
OC(COc1ccc(Cl)cc1)Cn1nnc2ccccc21 (stereo not drawn)	1.04	0.162
CCOC(=O)c1cnc2cc(C(F)(F)F)ccc2c1Nc1cc(C)ccc1OC	1.02	0.289
CCCCN(CCCC)Cc1c(C)[nH]c2ccccc2c1=O	1.08	1.33
Cc1nn(Cc2ccc(Cl)cc2)c(C)c1NC(=O)c1noc2c1CCCC2	0.873	-0.595
COc1ccc(C2=C(Cl)C=C(c3ccccc3C)c3ccccc3O2)cc1OC	0.722	-4.3
COc1ccc(-n2c3c(cc(C(=O)Nc4cc(OC)ccc4OC)c2=O)C(=O)CC(C)(C)C3)cc1	1.12	1.48
O=C(Nc1ccc(Oc2ccccc2)cc1)C(Cc1ccccc1)N1C(=O)c2ccccc2C1=O (stereo not drawn)	0.913	-0.218
COc1ccc(N2Cc3cccc(C(=O)Nc4ccccc4C)c3C2=O)cc1	0.786	-5.21
Cc1ccc2oc(-c3cc(NC(=O)COc4ccc(C(C)C)cc4)ccc3Cl)nc2c1	1.04	0.0488
CCOc1ccccc1N(C)C(=O)c1cc2c(s1)-c1ccccc1OC2	0.995	-0.226
COc1ccc(-c2cc(-c3ccccc3)cc(-c3cc(Cl)ccc3O)n2)cc1	0.922	-2.31
CCOC(=O)c1cc(-c2ccccc2)n(-c2cccc(C(=O)N3CCCC3)c2)c1C	0.793	-2.23
O=C(OCCN1CCCC1)C1(c2ccccc2)CCCC1	0.983	-0.205
CCCSc1nnc(Cc2cc(=O)[nH]c(=O)[nH]2)n1-c1cc(C)ccc1C	1.01	0.0259
COc1ccccc1-n1cnc2cc(NS(=O)(=O)c3ccccc3)ccc21	1.08	0.931
O=C(CCSc1ccccc1)Nc1nc(-c2ccncc2)cs1	0.993	-0.173
Cc1ccnc(NC(=O)Cn2nc(Cc3ccncc3)c3ccccc3c2=O)c1	1.07	0.686
Cc1ccc(-c2nc(CS(=O)(=O)CC(=O)NCCCN(Cc3ccccc3)C(C)C)c(C)o2)cc1	0.949	-0.0512
COc1ccc(Nc2nc3ccccc3nc2NS(=O)(=O)c2ccc(Br)cc2)cc1OC	0.947	-0.523
O=C(NCCCN1CCN(c2cccc(Cl)c2)CC1)c1ccc(Cn2c(=O)[nH]c3ccccc3c2=O)cc1	1.08	0.223
Cc1cc(N2CCOCC2)nc2ccc(NC(=O)c3ccc(F)cc3Cl)cc12	0.974	-0.666
O=C(Nc1cc(Cl)ccc1Cl)c1cc(-c2ccco2)on1	0.956	-1.12
CCCCOc1ccccc1C1NC(=O)NC(C)=C1C(=O)OC (stereo not drawn)	0.96	-1.11
CCOC(=O)CNc1c(NCCc2ccc(Cl)cc2)c(=O)c1=O	1.04	1.64
COc1ccc(NC(=O)CSc2nnc(Cc3cccn3C)n2-c2ccc(C)cc2)cc1OC	0.894	-2.54
CCOc1ccc(C2CC(=O)NC3=C2C(=O)CC(C)(C)C3)cc1OC (stereo not drawn)	0.978	-0.294
O=C1CCc2cc(S(=O)(=O)N3CCCC3C(=O)N3CCN(c4ccccc4)CC3)ccc2N1 (stereo not drawn)	1	0.0815
CC(C)c1ccc(-c2csc(NC(=O)c3ccc(Oc4ccccc4)cc3)n2)cc1	1	0.0522
COC(=O)c1nnn(-c2nonc2N)c1CSc1nncn1C	1.02	0.936
CCOCCCNC(=O)c1cc(-c2cccnc2)nc2ccc(S(=O)(=O)N3CCC(C)CC3)cc12	0.784	-2.31
Cc1ccc2c(c1)c1c3n2CCN(CC(O)c2ccc(Br)cc2)C3CCC1 (stereo not drawn)	0.832	-1.99
COCCNC(=O)CN1C(=O)COc2ccc(S(=O)(=O)N3CCOCC3)cc21	1.01	0.424
COc1ccc(CCN2C(=O)CCC2(C)C(=O)NC2CCC(C)CC2)cc1OC (stereo not drawn)	0.973	-0.524
CCCCc1nc2ccccc2c(NC(=O)CN2CCOCC2)c1CCC	0.847	-2.45
Cn1c(CNc2ccc(Br)cc2)nc2ccccc21	1.03	1.16
O=[N+]([O-])c1cccc(-c2nc(-c3cccnc3)no2)c1	0.949	-1.3
CCOC(=O)c1cccc(NS(=O)(=O)c2cc(Br)cc3c2N(C(=O)C2CC2)CC3)c1	1.03	1.33
Cc1nc(Nc2cc(C)on2)c2c(C)c(C)sc2n1	0.852	-0.195
CCN(CC)CCNC(=O)Cn1nc(-c2ccc(C)cc2)ccc1=O	1.01	0.423

Reprinted from the listing for reference:
SMILES	CBX7 inh	CBX7 inh z-score
COc1ccccc1-n1cnc2cc(NS(=O)(=O)c3ccccc3)ccc21	1.08	0.931
O=C(CCSc1ccccc1)Nc1nc(-c2ccncc2)cs1	0.993	-0.173
Cc1ccnc(NC(=O)Cn2nc(Cc3ccncc3)c3ccccc3c2=O)c1	1.07	0.686
Cc1ccc(-c2nc(CS(=O)(=O)CC(=O)NCCCN(Cc3ccccc3)C(C)C)c(C)o2)cc1	0.949	-0.0512
COc1ccc(Nc2nc3ccccc3nc2NS(=O)(=O)c2ccc(Br)cc2)cc1OC	0.947	-0.523
O=C(NCCCN1CCN(c2cccc(Cl)c2)CC1)c1ccc(Cn2c(=O)[nH]c3ccccc3c2=O)cc1	1.08	0.223
Cc1cc(N2CCOCC2)nc2ccc(NC(=O)c3ccc(F)cc3Cl)cc12	0.974	-0.666
O=C(Nc1cc(Cl)ccc1Cl)c1cc(-c2ccco2)on1	0.956	-1.12
CCCCOc1ccccc1C1NC(=O)NC(C)=C1C(=O)OC (stereo not drawn)	0.96	-1.11
CCOC(=O)CNc1c(NCCc2ccc(Cl)cc2)c(=O)c1=O	1.04	1.64
COc1ccc(NC(=O)CSc2nnc(Cc3cccn3C)n2-c2ccc(C)cc2)cc1OC	0.894	-2.54
CCOc1ccc(C2CC(=O)NC3=C2C(=O)CC(C)(C)C3)cc1OC (stereo not drawn)	0.978	-0.294
O=C1CCc2cc(S(=O)(=O)N3CCCC3C(=O)N3CCN(c4ccccc4)CC3)ccc2N1 (stereo not drawn)	1	0.0815
CC(C)c1ccc(-c2csc(NC(=O)c3ccc(Oc4ccccc4)cc3)n2)cc1	1	0.0522
COC(=O)c1nnn(-c2nonc2N)c1CSc1nncn1C	1.02	0.936
CCOCCCNC(=O)c1cc(-c2cccnc2)nc2ccc(S(=O)(=O)N3CCC(C)CC3)cc12	0.784	-2.31
Cc1ccc2c(c1)c1c3n2CCN(CC(O)c2ccc(Br)cc2)C3CCC1 (stereo not drawn)	0.832	-1.99
COCCNC(=O)CN1C(=O)COc2ccc(S(=O)(=O)N3CCOCC3)cc21	1.01	0.424
COc1ccc(CCN2C(=O)CCC2(C)C(=O)NC2CCC(C)CC2)cc1OC (stereo not drawn)	0.973	-0.524
CCCCc1nc2ccccc2c(NC(=O)CN2CCOCC2)c1CCC	0.847	-2.45
Cn1c(CNc2ccc(Br)cc2)nc2ccccc21	1.03	1.16
O=[N+]([O-])c1cccc(-c2nc(-c3cccnc3)no2)c1	0.949	-1.3
CCOC(=O)c1cccc(NS(=O)(=O)c2cc(Br)cc3c2N(C(=O)C2CC2)CC3)c1	1.03	1.33
Cc1nc(Nc2cc(C)on2)c2c(C)c(C)sc2n1	0.852	-0.195
CCN(CC)CCNC(=O)Cn1nc(-c2ccc(C)cc2)ccc1=O	1.01	0.423

The list goes on:
SMILES	CBX7 inh	CBX7 inh z-score
O=C(Nc1c2c(nn1-c1ccc(Cl)cc1)CSC2)c1cccc(Br)c1	0.967	-0.758
CCCCNC(=O)Cn1c2c(c(-c3ccccc3Cl)cc1=O)CCC2	0.87	-0.818
Cn1cc(CC(=O)N2CCC(C(N)=O)CC2)c2ccccc21	1.01	0.0883
CCCCCc1cc(C(=O)O)[nH]c1-c1ccccc1	0.874	-1.37
CCC(C)NC(=O)CSCc1nc(-c2ccc(OC)c(OC)c2)oc1C (stereo not drawn)	1.1	1.61
CC1CCCN(S(=O)(=O)c2ccc3[nH]c(=O)cc(C(=O)NC(C)CCc4ccccc4)c3c2)C1 (stereo not drawn)	1.05	1.62
Cc1ccc2cc(CCNC(=O)C(C)C)c(=O)[nH]c2c1C	1.09	0.615
COc1ccc(OC)c(Nc2nc3nonc3nc2N2CCOCC2)c1	1.02	0.607
O=C(Nc1ccc(Br)cc1)C1CCCN(S(=O)(=O)c2cnc[nH]2)C1 (stereo not drawn)	0.992	-0.19
CCc1ccc(NS(=O)(=O)c2ccc3[nH]cc(C(=O)N(C)Cc4ccccc4)c(=O)c3c2)cc1	0.971	-0.544
CS(=O)(=O)c1nc(-c2ccc(Br)cc2)n[nH]1	0.926	-1.27
Cc1ccc(NC(=O)CSc2nnc(CNC(=O)c3cccs3)o2)c(C)c1	1.05	2.3
Cc1ccc(S(=O)(=O)N2CCC(C(=O)N3CCC(Cc4ccccc4)CC3)CC2)cc1	1.02	0.574
COc1ccc(NS(=O)(=O)c2ccc3c(c2)CCC(=O)N3)c(OC)c1	0.914	-1.1
O=c1cc(N2CCN(c3ccc(F)cc3)CC2)[nH]c(=O)n1-c1ccc(Br)cc1	0.953	-0.784
CCOc1ccc(S(=O)(=O)N2CCC(C)CC2)c2ccccc12	0.609	-4.42
CCC(C)NC(=O)CS(=O)(=O)Cc1nc(-c2ccc(OC)cc2)oc1C (stereo not drawn)	0.927	-0.152
Cc1cc(C)cc(NC(=O)c2ccc(CNc3c(N4CCC(C)CC4)c(=O)c3=O)cc2)c1	1.01	0.418
COc1ccccc1N1CCN(C(c2cccs2)C(C)NS(=O)(=O)c2ccccc2)CC1 (stereo not drawn)	0.872	-1.64
COc1cccc(Nc2nc3ccccc3nc2NS(=O)(=O)c2ccc(Cl)cc2)c1	1.05	1.05
CC1CCCCC1NC(=O)c1ccc2c(c1)NC(=O)c1ccccc1S2 (stereo not drawn)	0.974	-1.17
CCn1c(SCC(=O)Nc2cccc(Cl)c2)nnc1-c1c[nH]c2ccccc12	0.994	-0.0382
Clc1cccc(-n2nnnc2C(c2ccccc2Cl)N2CCCCC2)c1 (stereo not drawn)	1.04	1.12
O=C(NCCCN1CCCCC1)c1ccc2c(c1)N(Cc1ccc(F)cc1Cl)C(=O)CS2	1	0.217
Cc1ccc(C(=O)Nc2ccc3nc(SCc4ccc(Br)cc4)sc3c2)cc1	0.948	-0.83
C=CCN(CC=C)S(=O)(=O)c1ccc(C(=O)Nc2nnc(COC)o2)cc1	0.0685*	-1.62*
CCc1c(C)nc2c(-c3ccc(Cl)cc3)c(C)[nH]n2c1=O	0.928	-1.25
CCCNC(=O)C1CC(c2ccc(F)cc2)=NO1 (stereo not drawn)	1.04	1.66
Cc1ccc(-c2nnc(Nc3ccc(S(N)(=O)=O)cc3)c3ccccc23)cc1S(=O)(=O)N(C)C	0.968	-0.599
COc1ccc(OC)c(NC(=O)Cc2c(C(=O)O)[nH]c3ccc(Cl)cc23)c1	1.04	1.35
O=C(Nc1cccc(-c2nc3ccccc3[nH]2)c1)c1cccc(C(F)(F)F)c1	0.847	-1.17
Cc1cccc(C(=O)Nc2ccc(-c3nc4cc(C)cc(C)c4o3)cc2)c1	1.09	0.87
Cc1ccc2oc(-c3ccc(N)cc3O)nc2c1	0.982	-0.279
CCC(C)NC(=O)C1c2ccccc2C(=O)N1Cc1cc(OC)ccc1OC (stereo not drawn)	1.08	0.298
O=C(Nc1nc2c(Cl)cccc2s1)c1ccccc1Oc1ccccc1	0.913	-0.199
Cc1nc(-n2cccc2)sc1C(=O)NC1CCCC1	0.96	-1.14
CCCCCCc1cc2c(=O)c(-c3csc(-c4ccccc4)n3)coc2cc1O	1.1	1.75
CCN1CCCC1CNC(=O)Cn1c(C)cc2ccccc2c1=O (stereo not drawn)	1.01	0.271
COc1ccc(-n2ncc3c(NCc4ccc(C)cc4)ncnc32)cc1	0.983	-0.0588
COc1cc2c(c(OC)c1)C(c1cccc(Oc3ccccc3)c1)CC(=O)N2 (stereo not drawn)	0.892	-1.36
CCCCC(CC)C(=O)Nc1c2c(nc3c1CCC3)CCCC2 (stereo not drawn)	1.08	1.05
O=C(NCc1ccc2c(c1)OCO2)c1cc(-c2ccccc2Cl)nc2ccccc12	0.997	-0.0106
CCOc1ccc(CN2C(=O)CCC2(C)C(=O)NCc2cccnc2)cc1 (stereo not drawn)	1.05	0.904
Cc1nc2cc(-c3ccccc3)nn2c(C)c1CCC(=O)N1CCCCC1	1.07	1.14
COc1ccc(OC)c(-c2nnc(SCC(=O)N3CCN(c4ccccc4)CC3)o2)c1	1.19	3.8
O=C(Nc1ccccc1-c1nc2ccccc2[nH]1)c1ccc(F)cc1	1.05	0.395

Filtered by structure, those above with a COOH group (3)
SMILES	CBX7 inh	CBX7 inh z-score
COc1ccc(OC)c(-c2nc(Nc3ccc(C)c(Cl)c3)sc2CC(=O)O)c1	0.997	-0.0485
CCCCCc1cc(C(=O)O)[nH]c1-c1ccccc1	0.874	-1.37
COc1ccc(OC)c(NC(=O)Cc2c(C(=O)O)[nH]c3ccc(Cl)cc23)c1	1.04	1.35
